T cruzi inh – inhibitors of intracellular T. cruzi growth, primary screen, luminescence, NIH3T3 host cells. actives 1.4% (n = 300,000). inhibition, % (no concentration beside the values). AID 1885, 2009. T. cruzi beta-gal in NIH3T3, 90 h;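 active means mean inhibition across valid replicates above about 55%, limit read from the data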;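 further: signal also drops with host cell toxicity which is not excluded here; 0% = plate median of DMSO wells and 100% = zero luminescence signal; higher percent means less beta-gal luminescence so fewer parasites; stock transfer was 50 nL into about 50 µL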
Beta apoptosis – inhibitors of cytokine-induced beta cell apoptosis, primary screen, luminescence; INS-1E cytokine-induced death, ATP luminescence, 48 h; percent of positive-control rescue, neutral wells zero; protection from apoptosis, % (test concentration not listed); actives 0.8% (n = 300,000);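 active means all replicates at 75% or more, or half of them and the mean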;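 further: 0% = cytokine-treated negative control wells and 100% = positive control rescue; higher means more ATP so stronger rescue from cytokine killing; wells of about 40 µL received 100 nL stock; the first replicate is given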
rRNA inh HTS – reduced GFP signal of wild-type E. coli, primary screen, bacterial rRNA inhibitor project, GFP/RFP fluorescence, OD600, single point. E. coli WT GFP vs humanized-ribosome RFP mutants, 24 h; hits give low values; DMSO median 0, no signal -100. AID 720706, 2013. GFP signal change (wild-type ribosome), % (no concentration beside the values). actives 1.6% (n = 350,000);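 active means significant combined selectivity score with lowered wild-type GFP, culture density cut under 30%, mutant RFP and density less affected; inactive means any of these conditions unmet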; further: one replicate is shown; some compounds called inactive have numbers as strong as hits
UCH37 inh – inhibitors of human UCH37 deubiquitinase, primary screen, biochemical, Ub-AMC cleavage, fluorescence; purified proteasome/UCH37; actives 0.33% (n = 330,000); inhibition, % (test concentration not listed); Ubiquitin carboxyl-terminal hydrolase isozyme L5 (Homo sapiens), Q9Y5K5; AID 588478, 2011;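 active means mean of two replicates above 20%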;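 further: 0% = compound-free wells with enzyme and 100% = wells lacking proteasome; stock transfer was 100 nL into about 20 µL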
Target sequence (Q9Y5K5 whole entry, looked up): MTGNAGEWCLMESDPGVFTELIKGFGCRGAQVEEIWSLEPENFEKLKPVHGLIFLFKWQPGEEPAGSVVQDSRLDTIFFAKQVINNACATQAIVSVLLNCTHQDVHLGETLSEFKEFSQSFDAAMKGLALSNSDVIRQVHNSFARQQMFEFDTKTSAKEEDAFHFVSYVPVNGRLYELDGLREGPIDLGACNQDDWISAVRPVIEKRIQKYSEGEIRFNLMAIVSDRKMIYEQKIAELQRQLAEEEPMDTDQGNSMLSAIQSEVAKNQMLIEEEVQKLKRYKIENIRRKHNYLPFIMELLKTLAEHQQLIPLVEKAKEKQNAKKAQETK
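Schedule: 30 min plus 25 min, room temperature / Material: human UCH37 within purified proteasomes / Technique: AMC fluorescence intensity at 355/460 nm / Buffer or medium: pH 7.4 Tris-HCl (50 mM) with ovalbumin, ATP-MgCl2, DTT / Controls: wells without proteasome as full block, compound-free enzyme plus substrate as uninhibited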
FGF22 binding – binders of human FGF22 protein, primary screen, FGF22 synaptogenesis inhibitor project, biophysical, thermal shift, single point; recombinant FGF22 thermal shift, SYPRO orange fluorescence; percent of sucrose octasulfate shift, DMSO zero; Fibroblast growth factor 22 (Homo sapiens), Q9HCT0; actives 1.5% (n = 340,000); calls only at 9.99 µM; AID 651658, 2012;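 active means melting point raised past a set limit in the mean and every replicate; three in four hits are not shown here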
Target sequence (Q9HCT0 whole entry, looked up): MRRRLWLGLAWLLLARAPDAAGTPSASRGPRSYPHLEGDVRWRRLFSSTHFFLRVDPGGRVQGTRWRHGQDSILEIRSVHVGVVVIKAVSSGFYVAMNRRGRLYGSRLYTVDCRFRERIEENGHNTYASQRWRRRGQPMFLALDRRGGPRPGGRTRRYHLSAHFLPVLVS
MLL AF4-AF9 inh – inhibitors of AF4 peptide binding to AF9, primary screen, biochemical, AlphaScreen, biotin-AF4 peptide, FLAG-AF9, single point; actives 0.47% (n = 350,000); AID 651704, 2012; inhibition, % at 10 µM; Protein AF-9 (Homo sapiens), P42568;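 active means every replicate reaching a set inhibition limit, whatever the replicate mean, cut at about 25% in these data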;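 further: 0% = plate neutral control median and 100% = total signal loss; the record names both 10 and 1 µM as test concentration; the first replicate is given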
Target sequence (P42568 whole entry, looked up): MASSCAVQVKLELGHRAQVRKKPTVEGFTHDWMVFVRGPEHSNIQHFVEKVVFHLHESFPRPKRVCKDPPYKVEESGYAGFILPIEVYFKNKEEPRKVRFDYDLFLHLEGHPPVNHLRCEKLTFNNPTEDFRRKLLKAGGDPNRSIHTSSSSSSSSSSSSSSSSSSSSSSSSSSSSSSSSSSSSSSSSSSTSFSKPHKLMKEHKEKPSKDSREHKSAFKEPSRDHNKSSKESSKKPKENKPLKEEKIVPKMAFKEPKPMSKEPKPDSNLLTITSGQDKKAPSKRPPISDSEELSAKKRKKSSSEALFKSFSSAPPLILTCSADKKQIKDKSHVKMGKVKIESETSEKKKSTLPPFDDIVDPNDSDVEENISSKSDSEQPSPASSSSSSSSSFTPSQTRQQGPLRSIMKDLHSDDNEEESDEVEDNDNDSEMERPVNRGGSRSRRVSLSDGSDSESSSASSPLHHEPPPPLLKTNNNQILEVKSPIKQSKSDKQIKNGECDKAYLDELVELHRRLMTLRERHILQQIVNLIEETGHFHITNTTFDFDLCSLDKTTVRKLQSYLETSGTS
A1 inh – caspase 3/7 activation in MEF A1-2A-BIM cells, primary screen, A1 inhibitor project, cell-based, luminescence, HTS | Caspase-Glo 3/7 luminescence, 3 h; percent of clofoctol response, vehicle zero | caspase activation, % (no concentration beside the values) | actives 0.066% (n = 330,000) | AID 2462, 2010;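 active means over half of replicate activation scores above 10%, or exactly half above 10 with the replicate mean above 10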;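 further: wells of about 30 µL received 50 nL stock; many hits fall short of the cut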
Ecoli growth – E. coli growth inhibition, primary screen, OD600 | actives 0.21% (n = 330,000) | OD600 absorbance (no concentration beside the values) | Escherichia coli growth, 23 h; hits give low values | AID 1053175, 2014;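 active means OD600 absorbance below the run mean of sample wells minus 3.6 SD, in any replicate, cut at about 0.56 in these data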;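 further: stock transfer was 300 nL into about 60 µL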
rRNA inh HTS OD600 – second read-out of rRNA inh HTS, no call of its own (marks repeat the call); OD600 change, %; measured here: OD600 growth;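 optical density of the mix in the first replicate; 0 = DMSO median and -100 = no signal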
rRNA inh HTS RFP – second read-out of rRNA inh HTS, no call of its own (marks repeat the call); RFP signal change, %; measured here: RFP humanized mutant strains;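 first replicate; 0 = DMSO median and -100 = no signal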
Starred values were filed as active, the others as inactive; i = inactive; . = no result given. Not all compounds are listed. The share of hits here may be higher or lower than overall.

| canonical_smiles | T cruzi inh | Beta apoptosis | rRNA inh HTS | rRNA inh HTS OD600 | rRNA inh HTS RFP | UCH37 inh | FGF22 binding | MLL AF4-AF9 inh | A1 inh | Ecoli growth |
| --- | --- | --- | --- | --- | --- | --- | --- | --- | --- | --- |
| CC(C)c1ccc2nc(N)sc2c1 | 5.3 | 1.8 | -4.5 | -10.1 | -4.3 | 6.2 | i | 0.6 | -1.4 | 0.689 |
| COc1ccc(CNC(=O)CN2CCN(c3ccccc3)CC2)cc1 | -0.2 | 3.8 | 10.0 | 11.3 | 0.2 | 1.7 | i | 1.5 | 0.6 | 0.661 |
| CC(=O)N1CCCc2cc(S(=O)(=O)N3CCN(c4ccccn4)CC3)ccc21 | -3.1 | 3.5 | . | . | . | 1.9 | . | . | -0.2 | 0.732 |
| Cc1sc(CO)c(Sc2ccccc2)c1C(=O)O | -4.2 | -2.2 | 16.5 | 10.2 | 2.5 | 2.1 | i | 0.8 | -0.1 | 0.647 |
| Cc1cc(N2CCCC2)ccc1NC(=O)CN1C(=O)NC2(CCCCC2)C1=O | -1.3 | -2.3 | -12.3 | -4.4 | -0.2 | -0.5 | i | 2.3 | 0.5 | 0.649 |
| COc1ccccc1NS(=O)(=O)NC(=O)c1cn(C)c2ccccc12 | 2.4 | -3.7 | 10.1 | 5.9 | 0.0 | 1.0 | i | -2.3 | 0.3 | 0.663 |
| Cc1ccc(-c2ccc(S(=O)(=O)N3CC(C)OC(C)C3)cc2)cc1 (centres undefined) | -4.8 | -5.2 | -8.4 | -5.7 | -5.7 | -3.5 | i | -2.7 | 1.6 | 0.711 |
| CCN(CC)S(=O)(=O)c1cc(NC(=O)C2CC(=O)N(Cc3ccccc3)C2)ccc1Cl (centres undefined) | . | 9.4 | -8.7 | -48.8 | -0.8 | 1.0 | i | 3.5 | 2.3 | 0.669 |
| CCN=C1SC(C(=O)Nc2cccc(C(=O)O)c2)CC(=O)N1CC (centres undefined) | -8.9 | 2.3 | . | . | . | 1.0 | . | . | 0.2 | 0.715 |
| Cc1ccc(Oc2c(C=O)c3ccccc3n2C)cc1 | . | 0.3 | . | . | . | 3.7 | . | . | 0.4 | 0.695 |
| Cc1ccc(S(=O)(=O)N[C@H](C(=O)OCC(=O)N2N=C(c3ccc(Cl)cc3)CC2c2ccco2)C(C)C)cc1 (some centres undefined) | 26.6 | 3.1 | 3.0 | 2.5 | 2.9 | -2.0 | i | 4.1 | 0.4 | 0.731 |
| O=S1(=O)N=C(Nc2ccc(O)cc2)c2ccccc21 | -8.1 | . | 8.1 | 6.5 | 1.0 | 5.0 | i | -1.0 | 0.7 | 0.672 |
| COC(=O)c1cn(CCOc2ccccc2OC)c2ccccc12 | -4.4 | -5.8 | . | . | . | 21.6* | . | . | -0.6 | 0.68 |
| N#Cc1cc(-c2ccccc2)nc(Oc2ccc(Cl)cc2)n1 | 24.7 | . | . | . | . | 2.1 | . | . | 0.3 | 0.719 |
| Cc1ccc(NC(=O)C2CCCN2C(=O)OC(C)(C)C)cc1C (centres undefined) | -4.4 | 0.0 | 7.6 | 6.0 | 0.7 | 0.6 | i | -1.3 | -0.5 | 0.723 |
| O=C(Nc1ccc2c(c1)CCC2)c1cccc(S(=O)(=O)N2CCN(c3ccc(F)cc3)CC2)c1 | -4.1 | 3.4 | 7.2 | 13.9 | 1.8 | 3.9 | . | . | -0.1 | 0.732 |
| C=CCS(=O)(=O)N1CCCC(N(C)CCc2ccc(OC)c(OC)c2)C1 (centres undefined) | 38.7 | -5.3 | 15.7 | 7.0 | 3.5 | 6.4 | i | 1.1 | 0.0 | 0.699 |
| Cc1ccc(OCC(=O)O/N=C(\N)c2ccncc2)cc1C | 12.1 | -7.8 | -6.1 | -4.7 | 0.0 | 3.5 | i | -2.6 | -0.2 | 0.652 |
| O=C(COC(=O)c1ccc(NC(=O)C2CC=CCC2C(=O)O)cc1)c1ccccc1 (centres undefined) | -9.1 | -0.1 | -10.6 | 1.2 | -2.6 | 1.5 | i | 1.6 | 0.4 | 0.694 |
| CCCNC(=O)Cc1ncn[nH]1 | -11.3 | -4.1 | . | . | . | 1.3 | . | . | 0.4 | 0.692 |

Entries of single compounds as entered above.
`Cc1sc(CO)c(Sc2ccccc2)c1C(=O)O` reads T cruzi inh: -4.2; Beta apoptosis: -2.2; rRNA inh HTS: 16.5; rRNA inh HTS OD600: 10.2; rRNA inh HTS RFP: 2.5; UCH37 inh: 2.1; FGF22 binding: i; MLL AF4-AF9 inh: 0.8; A1 inh: -0.1; Ecoli growth: 0.647
`Cc1cc(N2CCCC2)ccc1NC(=O)CN1C(=O)NC2(CCCCC2)C1=O` reads T cruzi inh: -1.3; Beta apoptosis: -2.3; rRNA inh HTS: -12.3; rRNA inh HTS OD600: -4.4; rRNA inh HTS RFP: -0.2; UCH37 inh: -0.5; FGF22 binding: i; MLL AF4-AF9 inh: 2.3; A1 inh: 0.5; Ecoli growth: 0.649

Following part:
| canonical_smiles | T cruzi inh | Beta apoptosis | rRNA inh HTS | rRNA inh HTS OD600 | rRNA inh HTS RFP | UCH37 inh | FGF22 binding | MLL AF4-AF9 inh | A1 inh | Ecoli growth |
| --- | --- | --- | --- | --- | --- | --- | --- | --- | --- | --- |
| Cc1cc(C)c(C#N)c(N2CCC(C(N)=O)CC2)n1 | -12.7 | -4.5 | 3.1 | 1.3 | 0.1 | -93.2 | i | -1.9 | -0.5 | 0.687 |
| COc1ccc(N2C(=O)CC(n3cnc4ccccc43)C2=O)cc1 (centres undefined) | -0.2 | -1.8 | . | . | . | 3.4 | . | . | . | 0.668 |
| CC(=O)c1cccc(S(=O)(=O)Nc2ccc(N3CCOCC3)cc2)c1 | 8.0 | 1.3 | 6.1 | 6.4 | -0.6 | 2.3 | i | 4.7 | 0.6 | 0.633 |
| CC(O)[C@H]1CN=C(N)N1CCc1cc(C(F)(F)F)cc(C(F)(F)F)c1 (some centres undefined) | -1.9 | -4.7 | 11.7 | 6.6 | -1.9 | -1.7 | i | 2.4 | 0.7 | . |
| Cc1ccc(Nc2ccccc2)nn1 | 3.6 | -0.1 | . | . | . | 5.8 | i | -2.3 | -0.6 | 0.704 |
| CSCCC(NS(=O)(=O)c1ccc2c(c1)OCCO2)C(=O)N(C)Cc1ccccc1F (centres undefined) | . | -7.7 | -2.6 | -25.6 | -5.4 | 3.1 | i | 2.6 | 1.5 | 0.646 |
| Cc1cc(Cl)ccc1NS(=O)(=O)c1c(C)[nH]c(=O)[nH]c1=O | -19.4 | -5.3 | -18.9 | -9.0 | -4.2 | -1.2 | i | -3.2 | -0.4 | 0.708 |
| CCOc1ccc(S(=O)(=O)N(C)CC(=O)NCc2ccccn2)cc1Cl | 17.1 | . | 0.7 | -2.3 | -1.0 | 3.2 | i | -2.0 | 0.1 | 0.64 |
| CN(C)c1ccc(CSc2ccccc2)cc1 | . | . | 3.4 | 5.8 | 2.5 | 2.7 | . | 8.1 | . | 0.709 |
| COc1cc(C=C2C(=O)c3ccccc3C2=O)cc(OC)c1 | 2.5 | 0.9 | 36.2 | 5.8 | 30.9 | . | i | . | 0.2 | . |
| CN(C)c1nnnn1-c1ccc(Cl)cc1 | -3.1 | 2.1 | 2.1 | 1.9 | -1.0 | 5.1 | i | 1.6 | -0.8 | 0.717 |
| CCOc1ccc(C(C)=O)cc1CSc1nnc(-c2ccncc2)n1CCOC | 8.9 | 2.2 | 0.6 | 0.0 | 1.3 | -0.1 | i | 3.7 | 2.2 | 0.676 |
| COc1ccc(-n2nc3c(c2NC(=O)Cc2cccc(C)c2)CS(=O)C3)cc1 (centres undefined) | -0.9 | -1.9 | -1.1 | -9.6 | -6.8 | 3.8 | i | -5.1 | 1.3 | 0.697 |
| Cc1n[nH]c(C)c1N=Nc1ccc(Br)cc1 | -7.1 | -7.7 | -35.9* | -27.2* | -13.6* | 5.3 | i | 14.0 | -1.9 | 0.637 |
| Cc1ccccc1NC(=S)Nc1ccc(Br)cc1 | -21.9 | -6.5 | 11.7 | 1.2 | 3.3 | 1.3 | i | 4.0 | 1.3 | 0.591 |
| CC1CCCC(NC(=O)COC(=O)CCC(=O)c2cccs2)C1C (centres undefined) | . | -0.4 | -5.8 | -2.0 | 3.7 | 0.5 | i | -3.4 | -0.5 | 0.694 |
| CC(=O)C1=C(NC(=O)c2ccccc2F)C[C@@H]2[C@H]1C2(C)C | 20.8 | -1.0 | . | . | . | 5.1 | . | . | 1.5 | 0.752 |
| O=S(=O)(c1cccc(C(F)(F)F)c1)N1CCC(CO)(CCCc2ccccc2)CC1 | 14.7 | 2.7 | -9.6 | -10.9 | -0.7 | 2.5 | i | -1.0 | 0.2 | 0.698 |
| C=C(C)CNC(=O)c1ccc2nc(Cc3ccc(OC)cc3)oc2c1 | 2.5 | . | 3.8 | 8.8 | 0.7 | 1.4 | i | 1.1 | -7.2 | 0.613 |
| COc1ccc(-c2cc(C)no2)cc1S(=O)(=O)N1CCCCC1 | -0.9 | -3.5 | -3.6 | -10.2 | -0.7 | 6.0 | i | -3.0 | 0.1 | 0.722 |
| CCC(C)NC(=O)CCS(=O)(=O)c1ccc2c(c1)n(C)c(=O)c(=O)n2C (centres undefined) | -14.4 | -7.0 | 11.4 | 0.3 | -4.1 | 1.1 | i | -2.9 | 0.1 | 0.71 |
| CC(=O)c1cccc(NC(=O)CSc2nc(N3CCCCC3)nc(N3CCCCC3)n2)c1 | 24.0 | -4.3 | 14.7 | 11.6 | 1.9 | 3.3 | . | -0.9 | 0.3 | 0.707 |
| O=C(NCCO)C(=O)Nc1cc2c3c(c1)CC(=O)N3CCC2 | -22.0 | -1.3 | 14.8 | 14.4 | 2.8 | 3.4 | i | -0.4 | -1.0 | 0.686 |
| Cc1cc(C)n(CC(=O)N2CCCC(N3CCN(c4ccccc4C)CC3)C2)n1 (centres undefined) | -4.2 | . | 3.1 | 6.2 | 0.9 | 1.6 | i | -1.7 | -0.2 | 0.654 |
| COC(=O)C1=C(SC)N(c2ccccc2)C(c2ccccc2)CC1=O (centres undefined) | -10.8 | -1.0 | 0.8 | 11.4 | 11.0 | 7.9 | i | -2.6 | 0.1 | 0.641 |
| CC1CCCN(Cc2c(O)ccc3c4c(c(=O)oc23)CCCC4)C1 (centres undefined) | -4.8 | -2.2 | 0.0 | -7.7 | -5.4 | i | i | 4.4 | -0.4 | 0.685 |
| CCOC(=O)/C=c1\s/c(=C\c2ccc(C(F)(F)F)cc2)c(=O)n1CC(=O)NCc1ccco1 | -20.0 | 46.1 | 8.4 | 10.5 | 0.5 | . | i | -1.2 | 0.0 | . |
| Cc1cc(=O)[nH]c(-c2cccnc2)n1 | -7.6 | . | 18.4 | 27.8 | 1.3 | 0.4 | i | -1.3 | 0.0 | 0.714 |

Bioassay records from PubChem BioAssay.
